GIV-Gai inh = inhibitors of GIV GBA-motif binding to rat Galpha-i3 | P08753 | Galpha-i3/FITC-GIV peptide fluorescence polarization, 90 min; hits give low values; scaled: aluminum fluoride 0%, vehicle 100% | percent of control (FP), % (no concentration beside the values) | actives 0.42% (n = 210,000);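 active = replicate mean at 85% of control or lower, very high polarization wells dropped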;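 also: wells of about 15 µL received 100 nL stock; the first replicate is given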
Target sequence (P08753 whole entry, looked up): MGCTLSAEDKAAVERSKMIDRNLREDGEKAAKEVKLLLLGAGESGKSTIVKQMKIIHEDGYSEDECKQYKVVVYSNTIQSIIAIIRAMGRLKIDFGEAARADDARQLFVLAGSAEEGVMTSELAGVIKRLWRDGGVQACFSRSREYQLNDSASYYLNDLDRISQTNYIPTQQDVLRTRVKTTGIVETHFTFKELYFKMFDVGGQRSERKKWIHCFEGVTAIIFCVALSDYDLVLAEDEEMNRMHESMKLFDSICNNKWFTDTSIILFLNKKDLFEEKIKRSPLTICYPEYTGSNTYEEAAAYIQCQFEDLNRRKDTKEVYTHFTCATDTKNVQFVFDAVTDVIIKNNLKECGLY
HCMV UL50-53 inh = cytomegalovirus nuclear egress complex inhibition; AID 1918969; inhibition, % (concentration not given with the values); actives 0.15% (n = 190,000); HTRF UL50-UL53 interaction, normalized percent inhibition;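 active = both replicates at 50% or more, plus weaker picks with an unusually low signal ratio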;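 also: stock transfer was 100 nL into about 20 µL; 0% = negative control wells and 100% = wells with untagged competitor protein; inactives centre near -12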
Sa growth 42C = S. aureus growth inhibition; S. aureus RN4220 growth, OD600, 20 h, 42 °C; hits give low values; relative growth, % (test concentration not listed); actives 0.53% (n = 170,000); AID 720641;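 active = growth at 42 °C up to 50% and 20 or more points under that at 30 °C, or under 10% at both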;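 also: 300 nL library stock went into each well; scaled to the means of positive and negative controls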
Sa growth 42C second temp = also measured in Sa growth 42C; calls as there; relative growth, %; measured here: growth at 30 °C;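 optical density after 20 h as mean of two plates; 100% = untreated growth and lower means inhibition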
An asterisk follows results filed as active; . = not tested or not shown; & = joins results of further samples.

The line under a structure holds: GIV-Gai inh | HCMV UL50-53 inh | Sa growth 42C | Sa growth 42C second temp
- COc1ccc(CC(=O)NC2CCN(CC(=O)c3ccc(F)cc3)CC2)cc1OC
    106 | 12 | 96 | 98
- COCCN1COc2c(cc(Cl)c3cccnc23)C1
    . | -88 | 0.9* | 0.4*
- C/C(=N\NC(=O)c1cccnc1)c1ccc(-n2ccnc2)cc1
    . | -13 | 100 | 96
- COc1ccc(NC(=O)c2nnc(CSCC(=O)NCc3ccccc3)s2)cc1
    102 | -4 | . | .
- COc1ccc(N2C(=O)c3cc4ccsc4n3CC2(C)C(=O)NC2CCCC2)cc1OC (stereo unspecified)
    106 | -22 | . | .
- COc1ccccc1NC(=O)CSc1nc(-c2ccc(C(C)(C)C)cc2)c(C#N)c(=O)[nH]1
    105 | -108 | 97 | 92
- O=C(Cn1cc(SCc2cccc(F)c2)c2ccccc21)N1CCCC1
    104 | . | 103 | 106
- C/C=N/Nc1nc(C)cc(C)n1
    . | -19 | 75 | 92
- O=C(CCCCn1c(=O)c2ccccc2n(CC(=O)Nc2cccc(C(F)(F)F)c2)c1=O)NCc1ccc2c(c1)OCO2
    107 | -23 | 98 | 92
- CC/C(O)=C(\C#N)c1nnc2n1CCCCC2
    . | 14 | 94 | 97
- CC1N=C2c3ccccc3N=C(SCC(=O)NCCc3ccccc3)N2C1=O (stereo unspecified)
    100 | . | 90 | 89
- O=C(CSc1cc(Cl)ccc1Cl)NC1CC1
    . | -23 | 69 | 80
- CN(C)c1ccc(C=Nc2ccc(C(=O)O)cc2)cc1
    . | -9 | 105 | 103
- Cc1ccc2nc(Cc3nc4ccc(C)cc4[nH]3)[nH]c2c1
    103 | -42 | 101 | 83
- Cc1onc(-c2ccccc2)c1C(=O)NNc1ccc(Cl)cc1
    99 | -21 | 91 | 85

(list continues)
The line under a structure holds: GIV-Gai inh | HCMV UL50-53 inh | Sa growth 42C | Sa growth 42C second temp
- CC(C)c1ccc(NC(=O)CN2C(=O)CCc3cc(S(=O)(=O)N4CCOCC4)ccc32)cc1
    101 | . | 91 | 85
- CN(C)c1nc(-c2ccc(OC(F)F)cc2OC(F)F)cs1
    . | -23 | 75 | 77
- O=C(Nc1ccc2nc(SCC(=O)N3CCCc4ccccc43)sc2c1)c1ccccc1
    107 | -15 | 124 | 93
- CC1CCCCN1CC(=O)NCc1ccc(Cl)cc1 (stereo unspecified)
    . | -22 | 97 | 90
- O=C(Cn1c(=O)c(C(F)(F)F)nc2ccccc21)Nc1cccc(Cl)c1
    106 | -13 | . | .
- COc1cc(NC(=O)CCc2c(C)nc3c(c(C)nn3-c3ccccc3)c2C)cc(OC)c1OC
    99 | -9 | 101 | 81
- N#Cc1c(N)sc2c1CCCC2
    109 | -11 | 93 | 27
- CN1C=C(C(F)(F)F)C=CC1=C1C(=O)c2ccccc2C1=O
    . | -110 | 101 | 93
- COC(Cn1c(SCC(=O)Nc2cc(Cl)cc(Cl)c2)nnc1-c1ccccc1)OC
    100 | -28 | 93 | 88
- COC(=O)C1=C(N)OC2=C(C(=O)CC(c3ccccc3)C2)C1c1ccccc1C (stereo unspecified)
    112 | 5 | . | .
- CS(=O)(=O)c1ccccc1F
    . | 1 | 96 | 87
- CS(=O)(=O)N1CCN(C(=S)NC2CCCCC2)CC1
    103 | -5 | 107 | 109
- Cn1c(=O)c(=O)n(C)c2cc(S(=O)(=O)N3CCN(c4ccccn4)CC3)ccc21
    106 | -33 | . | .
- CCOC(=O)c1c(Cn2nnc3ccccc32)nc2ccccc2c1C
    . | -18 | 100 | 95
- O=C1CSC(c2ccccc2F)N1 (stereo unspecified)
    102 | -16 | 103 | 91

Next entries follow.
The line under a structure holds: GIV-Gai inh | HCMV UL50-53 inh | Sa growth 42C | Sa growth 42C second temp
- C=CCN1C(=O)C(Cc2ccc(F)cc2)S/C1=N\N=C/c1ccco1 (stereo unspecified)
    95 | -12 | 81 | 102
- O=C1Nc2ccccc2C1Cc1ccccc1F (stereo unspecified)
    105 | -18 | . | .
- CCOc1ccc(-n2c(=O)c3sccc3n(CC(=O)Nc3ccccc3C(=O)OC)c2=O)cc1
    107 | -3 | 75 | 91
- COc1cccc(NC(=O)Nc2c(C)nc3nc[nH]n3c2=O)c1
    110 | 1 | 106 | 96
- CNC(=O)/C(C#N)=C/N(C)C
    104 | -34 | 86 | 86
- COc1ccc(C2C3=C(CCCC3=O)Nc3onc(C)c32)cc1OC (stereo unspecified)
    107 | -27 | . | .
- COc1ccc(-c2ncnn2-c2cccc(Cl)c2)cc1OC
    100 | 1 | 103 | 113
- CCC(C)(C)NC(=O)C(NS(=O)(=O)c1cccs1)c1ccccc1 (stereo unspecified)
    112 | . | 102 | 89
- O=C(NC(=O)c1ccccc1Cl)OCc1cccc(Oc2ccccc2)c1
    104 | -26 | 91 | 79
- O=c1[nH]ncc2c3ccccc3n(Cc3ccccc3)c12
    100 | -6 | 87 | 75
- CN1C(=O)/C(=C\c2ccccc2)Sc2ccc(C(=O)NC3CCCCC3)cc21
    101 | . | 84 | 79
- CCN(CC)C(=O)COc1ccc(-c2nnc(Nc3ccc(C(N)=O)cc3)c3ccccc23)cc1
    100 | -64 | 84 | 47
- COCCNC(=O)CCn1nc(-c2ccc(Cl)cc2)c2ccccc2c1=O
    105 | -17 | 120 | 89
- CCOC(=O)c1c(NC(=O)c2ccc(Br)cc2)sc(C(=O)Nc2cccc(Cl)c2)c1C
    108 | -1 | . | .
- COc1ccc2oc(=O)cc(CN(C)c3c(C)cc(C)cc3C)c2c1
    105 | . | 89 | 86

Continuation.
The line under a structure holds: GIV-Gai inh | HCMV UL50-53 inh | Sa growth 42C | Sa growth 42C second temp
- COC(=O)c1cc2c(cc1NC(=O)c1c(C)nn(-c3ccc(C)cc3)c1-n1cccc1)OCO2
    98 | . | 98 | 97
- CN1CCN(C(=O)/C=C/c2c(Cl)nc3ccccn23)CC1
    . | -55 | 93 | 96
- COc1ccc(-c2noc(CC(=O)N3CCN(c4ccccn4)CC3)n2)cc1
    106 | -33 | 85 | 87
- O=C(CN1CCN(Cc2ccccc2)C(=O)C1=O)N1CCOCC1
    108 | -10 | . | .
- Cc1nc(-c2nc(-c3ccc(Cl)s3)cs2)cs1
    99 | -9 | 99 | 81
- CCOC(=O)N1CCC(NC(=O)c2cc(S(=O)(=O)N3CCC4(CC3)OCCO4)ccc2F)CC1
    99 | -24 | 94 | 90
- CCC(C)NC(=O)Cn1c(=O)n(CC(=O)NCCc2ccccc2)c(=O)c2sccc21 (stereo unspecified)
    109 | -2 | 91 | 92
- CCn1c(SCc2ccccc2F)nc(=O)c2c(C(=O)OC)cc(C3CC3)nc21
    101 | . | 47 | 48
- C=CCNc1nc(C)c(C#N)cc1C(=O)OCC
    103 | . | 97 | 92
- Cc1sc2ncnc(SC(F)F)c2c1C
    . | -31 | 96 | 88
- COc1ccc(-n2ncc(C(=O)NCc3ccc4c(c3)OCO4)c2C2CCN(C(=O)OC(C)(C)C)CC2)cc1
    119 | . | 127 | 97
- O=C(CSc1nc(=O)n(CCCN2CCOCC2)c2c1CCC2)Nc1nccs1
    97 | -20 | 108 | 90
- CCOC(=O)c1oc2cc(O)c(CC)cc2c(=O)c1-c1ccc2c(c1)OCCO2
    101 | . | 75 | 82
- O=C(CN1C(=O)COc2ccc(S(=O)(=O)N3CCOCC3)cc21)N1CCN(c2ccccc2F)CC1
    101 | -18 | 84 | 83
- O=C(CSCCCc1nc(-c2ccccc2)no1)Nc1ccc(F)c(F)c1
    . | 6 | 135 | 83

A second format for two compounds above.
> COc1ccc(CC(=O)NC2CCN(CC(=O)c3ccc(F)cc3)CC2)cc1OC
- GIV-Gai inh: 106
- HCMV UL50-53 inh: 12
- Sa growth 42C: 96
- Sa growth 42C second temp: 98

> COc1ccc(N2C(=O)c3cc4ccsc4n3CC2(C)C(=O)NC2CCCC2)cc1OC (stereo unspecified)
- GIV-Gai inh: 106
- HCMV UL50-53 inh: -22
- Sa growth 42C: .
- Sa growth 42C second temp: .

Next part:
The line under a structure holds: GIV-Gai inh | HCMV UL50-53 inh | Sa growth 42C | Sa growth 42C second temp
- O=C(NCCN1CCCCC1)c1ccc(Cn2c(SCc3ccccc3)nc3cccnc32)cc1
    108&108 | -19&-41 | 88 | 86
- O=C(Cc1c[nH]c2ccccc12)NC1(C(=O)NC2CCCC2)CCCCC1
    100 | 0 | 86 | 80
- Cc1ccc(C)c(NC(=O)Cn2c(=O)oc3cc(S(=O)(=O)NCc4ccccc4)ccc32)c1
    103 | -38 | 107 | 89
- O=C(O)CCC(=O)N1N=C(c2cccs2)CC1c1ccccc1Cl (stereo unspecified)
    104 | -39 | . | .
- CCN(CC)CCn1c(-c2ccccc2)csc1=Nc1ccccc1
    108 | -68 | 114 | 73
- Cc1cc2nc3s/c(=C4\C(=O)N(CC(=O)O)c5ccccc54)c(=O)n3c2cc1C
    102 | . | 124 | 89
- CC(C)Cc1ccc(S(=O)(=O)n2cccn2)cc1
    103 | . | 85 | 90
- O=C(CC1CC2CCC1C2)NCc1ccccc1C(F)(F)F (stereo unspecified)
    100 | . | 114 | 83
- CC(C)CC(C(=O)NCCc1ccccc1)N1Cc2ccccc2C1=O (stereo unspecified)
    101 | . | 80 | 89
- CC1(C)CS(=O)(=O)N(c2ccc(C(=O)NCCc3c[nH]c4ccccc34)cc2)C1=O
    101 | -10 | . | .
- CCOC(=O)c1nnn(-c2cccc(C)c2C)c1C(=O)OCC
    93 | -23 | 87 | 80
- COc1ccccc1NC(C)C(=O)N/N=C/c1cccs1 (stereo unspecified)
    102 | -41 | 89 | 79
- COC(=O)CC1C(=O)NCCN1C(=O)c1ccccc1 (stereo unspecified)
    101 | . | 93 | 85
- COc1ccc(CNC(=O)NC2CCN(S(=O)(=O)c3ccc(OC)cc3)CC2)cc1
    100&101 | -10&16 | 97 | 89
- Cc1c(NC(=O)COC(=O)C23CC4CC(CC(O)(C4)C2)C3)c(=O)n(-c2ccccc2)n1C
    . | -29 | 78 | 92

(listing goes on)
Compound,GIV-Gai inh,HCMV UL50-53 inh,Sa growth 42C,Sa growth 42C second temp
CCCN(CCC)C(=O)c1cc2c(=O)n3ccccc3nc2s1,104&104,-70&-61,89,87
Cc1cc(C)cc(NC(=O)Nc2nnc(N(C)C3CCCCC3)s2)c1,105,22,97,97
O=C(Nc1nc(SCc2ccc(F)cc2)ns1)c1cccs1,110,8,47,26
CCCCC12CN3CC(C)(CN(C1)C(=O)c1ccccc1C3=O)C2=O,99,-12,.,.
Cc1cc(C)cc(NC(=O)N2CCN(C)c3ncccc32)c1,100,-45,97,87
CCOC(=O)c1c(NC(=O)c2ccc(S(=O)(=O)N3CCC(C)CC3)cc2)sc2c1CCN(C)C2,127,.,143,96
c1ccc(-c2ccc(CNCc3cccs3)o2)cc1,102,-2,.,.
COC(=O)c1cc2sccc2n1CC#N,98,-31,103,92
COc1cc(-c2nc(C(N)=O)c3[nH]c(=O)n(CC4CCCO4)c3n2)ccc1O (stereo unspecified),103,2,.,.
COC(=O)c1ccc(COc2ncnc3c2cnn3-c2ccccc2)o1,.,-19,94,91
O=C1c2ccccc2C(=O)N1CCCc1nc2ccccc2c(=O)n1Cc1ccccc1,97,-4,.,.
CC(C)CNC(=O)c1cnn2c(C(F)(F)F)cc(C(F)(F)F)nc12,100,-12,109,82

(further entries)
Compound,GIV-Gai inh,HCMV UL50-53 inh,Sa growth 42C,Sa growth 42C second temp
Cc1cccc(N(C)C(=O)Cn2cnc3nc4c(cc3c2=O)CCCC4)c1,102,.,88,86
COc1ccc(Nc2cc(C(=O)NCCCN(C)C3CCCCC3)c3ccccc3n2)cc1,102,-31,107,92
CCOC(=O)c1c(NC(=O)c2cc(-c3ccc(OC)cc3)on2)sc(C)c1C,108,1,102,97
CC1CC(C)CN(C(=O)CNCc2ccco2)C1 (stereo unspecified),104,-10,102,93
COc1ccc(-c2nn(CC(=O)NCc3ccccc3)c3c2cnc2ccc(F)cc23)cc1,101,.,99,98
O=C(NCC(c1cccnc1)N1CCN(Cc2ccccc2)CC1)C(=O)Nc1cccc(F)c1 (stereo unspecified),105,10,100,95
O=C(Cn1c(=O)sc2cc(S(=O)(=O)N3CCOCC3)ccc21)N1CCCC1,108,-8,.,.
O=C1N=C2SC=CN2C(=O)/C1=C\c1ccccc1,.,-24,81,92
COc1ccc(-c2cc3nccc(-c4cc(F)ccc4O)n3n2)cc1,97,-29,.,.
O=c1c2c3c(sc2nc(SCCn2ccnc2)n1-c1ccccc1)CCCC3,.,-18,89,96
O=C(COC(=O)C12CC3CC(CC(O)(C3)C1)C2)NCc1ccc2c(c1)OCO2,.,-30,87,86
COc1ccc(OC)c(NC(=O)c2cc3c(=O)n4cccc(C)c4nc3n2C)c1,100,-22,114,91

(listing goes on)
Compound,GIV-Gai inh,HCMV UL50-53 inh,Sa growth 42C,Sa growth 42C second temp
COc1cc2c(cc1NC(=O)CN1CC(C)OC(C)C1)oc1ccccc12 (stereo unspecified),.,9,96,97
CCCC(=O)Nc1cc(S(=O)(=O)CC)ccc1OCc1cc(=O)n2oc(C)cc2n1,101,10,.,.
Cn1nc(C(=O)NN2CC(=O)NC2=O)c2ccccc2c1=O,.,-35,67,86
COC(=O)C1=C(CN2CCc3ccccc32)NC(=O)NC1c1cccc(OC)c1 (stereo unspecified),101,-1,87,71
CCOc1ccc(C2NC(=O)NC(C)=C2C(=O)OCCc2ccccc2)cc1OC (stereo unspecified),96,-16,.,.
Cc1ccc2oc(-c3ccc(Cl)cc3)c(O)c(=O)c2c1,100,-11,90,87
O=c1oc(-c2ccc(F)c(Cl)c2)nc2cccc(F)c12,98,.,81,87
O=C1CC(=O)N(Cc2ccco2)C(=O)N1,59*,87*,98,90
Cc1ccccc1NC(=O)c1c(NC(=O)c2cccs2)sc2c1CCC(C)C2 (stereo unspecified),106,-53,96,89

From PubChem BioAssay
